Screens as filed in PubChem BioAssay.
Sfp PPTase inh: Sfp phosphopantetheinyl transferase inhibition; Q9F4F7; Biochemical Sfp PPTase activity, qHTS; Potency, µM, for inactives: max response, negative = inhibition, hits mostly inhibitors; actives 3.5% (n = 310,000); AID 1490; active = well fitted inhibition curve with a large enough effect; inconclusive = small, poorly fitted or top-dose-only effect, or another doubt; inactive = no such curve, though single readings can be large or run the other way;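 also: the enzyme is Sfp with the accession as filed and its product quenches rhodamine fluorescence; potency is read from the fitted curve at half-maximal effect; 0% = enzyme reaction without inhibitor and -100% = no enzyme wells; top concentration of the series not given in the record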
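Sfp 15 nM + cpd, 15 min RT; start w/ rhodamine-CoA 5 uM, BHQ-2-YbbR 12.5 uM (final); 50 mM Hepes pH 7.6, 10 mM MgCl2, 0.01% NP-40, 0.01% BSA; read 525/598 nm at 0 and 30 min.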
ClpP mod: qHTS Assay for Activators of ClpP. purified B. subtilis ClpP, FRET peptide cleavage, 20 min. Potency, µM (top dose mostly 57.5 µM), without a hit: at the highest dose activity change, negative = active. actives 1.9% (n = 340,000). AID 651965, 2013; active = well fitted falling curve with a large enough effect; inconclusive = small, poorly fitted or top-dose-only effect; inactive = no such curve, though single readings can be large or run the other way; also: potency is read from the fitted curve at half-maximal effect; the source files actives as falling curves though it sought activators and does not explain the sign; nearly all actives have a fitted effect of over 65% in size; many hits overshoot -100%
Target sequence (P80244 whole entry, looked up): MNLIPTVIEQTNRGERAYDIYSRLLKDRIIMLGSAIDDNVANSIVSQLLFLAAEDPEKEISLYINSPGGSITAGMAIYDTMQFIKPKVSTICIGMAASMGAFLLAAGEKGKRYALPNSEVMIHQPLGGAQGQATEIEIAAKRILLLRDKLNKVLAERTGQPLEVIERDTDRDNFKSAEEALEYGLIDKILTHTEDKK
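FRET quenching reversal measured ClpP activation: 10 microg/mL B. subtilis ClpP at pH 8 with the FRET-FV decapeptide, read at 430 nm after 320 nm excitation. The 20-min minus 0-min signal was scaled between DMSO/no-enzyme wells and ADEP (5.8 microM final).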
gsp antagonist: antagonists of gsp mutant (McCune-Albright syndrome); Potency, µM (top dose mostly 76.9 µM), inactives show top-dose activity change, negative = inhibition, most hits filed as inhibitors; gsp-mutant cells, cAMP HTRF, 30 min; control for the full effect not named in the record; AID 624288; actives 0.4% (n = 340,000); active = falling curve of any shape with a large fitted effect; inconclusive = falling curve, mostly with a smaller effect; inactive = flat or rising curve; cell line not stated here;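 also: intracellular cAMP measured with PDE inhibitor Ro 20-1724 present during compound exposure; potency is read from the fitted curve at half-maximal effect; % is scaled to controls: 0 for no effect and ±100 for the full control effect; nearly all actives have a fitted effect of over 65% in size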
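HTRF cAMP measurement after 30 min RT detection following 30 min, 37C compound treatment alongside […] (added as 300 uM solution) in G418-selected cells seeded at 2000/well and grown 16–24 h.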
gsp agonist: agonists of gsp mutant (McCune-Albright syndrome). Potency, µM (titrated, usually from 76.9 µM), inactives show top-dose activation (cAMP increase), most hits filed as activators. actives 0.13% (n = 340,000). gsp mutant cells, cAMP HTRF, 30 min; control for the full effect not named in the record; active = well fitted activation curve with a large enough effect; inconclusive = small, poorly fitted or top-dose-only effect, or another doubt; inactive = no such curve, though single readings can be large or run the other way; cell line not stated here;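 also: phosphodiesterase inhibitor Ro 20-1724 added with compounds to block cAMP breakdown; potency is read from the fitted curve at half-maximal effect; nearly all actives have a fitted effect of over 60% in size; about a fifth of the inactives were tested at one dose only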
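Cells stably selected in G418 were plated at 2000/well, grown 16-24 hr, then given compounds in DMSO with the PDE inhibitor […] (300 uM solution added) for 30 min at 37C; cAMP was read by HTRF.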
CtBP-E1A blk: inhibitors of CtBP/E1A interaction. actives 0.49% (n = 340,000). AlphaScreen GST-E1A/His-CtBP binding, 1536-well; stronger effect = lower value; control for the full effect not named in the record. activity change, % (no concentration beside the values); in the data active means activity change below about -65%; inconclusive means about -30% to -65%; inactive means above about -30%; also: % is scaled to controls: 0 for no effect and ±100 for the full control effect; compound concentration not given in the record
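GST-E1A and His-tagged CtBP (125 nM each as 5X stock) were preincubated with pin-transferred compound for 2 h at 37 °C in the dark, then glutathione donor and nickel acceptor beads were added for 1 h before AlphaScreen reading.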
TRPV1 potentiator: enhances activation of the human vanilloid receptor TRPV1. actives 0.02% (n = 320,000). TRPV1-expressing cells, Fluo-8 calcium influx, capsaicin EC20 potentiation; host cell line not named in the record; control for the full effect not named in the record. Q8NER1. potentiation, % at 8.33 µM; active means potentiation above 80%; inconclusive means 30% to 80%; inactive means below 30%; also: 0% is about no effect
Target sequence (Q8NER1 whole entry, looked up): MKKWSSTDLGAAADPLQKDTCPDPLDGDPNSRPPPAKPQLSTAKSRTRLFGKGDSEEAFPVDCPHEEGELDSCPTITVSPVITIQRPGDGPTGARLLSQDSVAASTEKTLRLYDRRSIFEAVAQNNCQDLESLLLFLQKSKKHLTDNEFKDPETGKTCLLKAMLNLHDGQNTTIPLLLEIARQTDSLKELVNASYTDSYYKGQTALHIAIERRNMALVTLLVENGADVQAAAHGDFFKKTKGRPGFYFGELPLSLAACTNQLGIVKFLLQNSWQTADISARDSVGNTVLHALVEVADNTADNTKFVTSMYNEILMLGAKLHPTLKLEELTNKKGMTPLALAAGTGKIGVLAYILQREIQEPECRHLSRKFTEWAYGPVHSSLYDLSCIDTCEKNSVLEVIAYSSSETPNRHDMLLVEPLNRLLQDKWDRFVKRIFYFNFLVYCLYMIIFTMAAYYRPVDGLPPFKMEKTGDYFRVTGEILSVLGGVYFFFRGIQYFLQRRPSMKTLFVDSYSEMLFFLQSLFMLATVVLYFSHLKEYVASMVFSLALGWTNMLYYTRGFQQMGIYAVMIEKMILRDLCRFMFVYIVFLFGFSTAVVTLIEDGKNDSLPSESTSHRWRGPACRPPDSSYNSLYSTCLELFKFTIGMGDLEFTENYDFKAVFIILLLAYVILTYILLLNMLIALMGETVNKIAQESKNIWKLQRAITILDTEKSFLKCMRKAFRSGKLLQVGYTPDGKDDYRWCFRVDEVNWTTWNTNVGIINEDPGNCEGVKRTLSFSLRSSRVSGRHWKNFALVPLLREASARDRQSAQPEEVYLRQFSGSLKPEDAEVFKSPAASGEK
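TRPV1-expressing cells were cultured overnight at 35.5C and loaded with Fluo-8 calcium dye for 40 to 90 min at room temperature. After a 10 s baseline, compound was added and calcium influx was read kinetically for 3 min (ex 480/em 520 nm).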
Menin-MLL FL inh: inhibitors of human menin-MLL interaction, wild-type MLL peptide; Fluorescence polarization, fluorescein-MLL peptide displacement from menin; AID 1766; FP activity change, % at 61.4 µM; 290,000 tested, under 10 active; inconclusive = falling polarisation curve, or a change in total fluorescence; inactive = total fluorescence flat and polarisation flat or rising; no compound was filed as active; the % refers to the polarisation; negative = inhibition;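 also: % of control where 0% means no effect; inhibitors lower the polarisation; unlabelled MLL peptide was the positive control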
* marks the source's active call; other numbers are inactive results; u = inconclusive; x = no result given; & = joins results of further samples; ! = not active in a repeat; [ ] = remark or other dose. Random draw from the library (roughly 5.3% active in at least one column).

SMILES | Sfp PPTase inh | ClpP mod | gsp antagonist | gsp agonist | CtBP-E1A blk | TRPV1 potentiator | Menin-MLL FL inh
Cc1ccc(CNC(=O)C2CCCN(S(=O)(=O)c3cccnc3)C2)cc1 (configuration not stated) | 14% | 0.2% | -7% | 3% | 1 | -4 | -0.4
COc1ccccc1N1CCN(S(=O)(=O)c2ccc3c(c2)n(C)c(=O)n3C)CC1 | 7% | x | -14% | 8%[15.4 µM] | 2 | -1 | 4.1
CCN(C(=O)Cn1cnc2c(nc3n2CCCCC3)c1=O)c1cccc(Cl)c1 | 5% | 0.7% | 5% | -19% | 0 | 2 | x
O=C(c1ccco1)N1CCN(S(=O)(=O)c2ccc(Br)s2)CC1 | u | -2.6% | -1% | -16% | 7 | 2 | 2.8
CCCCN(CCCC)c1cc(C)nc(-c2ccccc2O)n1 | u | 32µM* | -8% | -64%[inhibitor] | 31 | -9 | 2.1
COCCNCCOCCOc1cccc(OC)c1 | 20% | -1.0% | 3% | -14% | -1 | 2 | 1.7
O=C(CCNS(=O)(=O)c1cccs1)Nc1ccccc1F | 4% | -1.6% | 16% | -19% | 2 | 22 | 9.8
Cc1ccc(-n2nc3c(=O)n(CCCC(=O)N4CCCCC4)nc(C)c3c2C)cc1 | 7% | -5.6% | -16% | u | -6 | -4 | x
Cn1cnnc1SCC(=O)NC1CCCCC1 | 6% | x | 7% | -4%[15.4 µM] | 4 | 12 | 0.8
Cc1cc(C(=O)OCC(=O)Nc2sc3c(c2C#N)CCC(C)C3)c2ccccc2n1 (configuration not stated) | u | x | 7% | 1%[15.4 µM] | -4 | 4 | 9.5
COc1cccc(N2CCN(S(=O)(=O)c3ccc(-n4cnnn4)cc3)CC2)c1 | 13% | -1.3% | 9% | u | -1 | -13&-12 | -1.5
COc1ccc(C)c2sc(N(CCCN(C)C)C(=O)c3ccc(S(=O)(=O)N4CCc5ccccc5C4)cc3)nc12 | x | -0.1% | 20% | 36%[15.4 µM] | -12 | x | x
CCCC(=O)OCC(=O)Nc1ccccc1C#N | 16% | -7.6% | -14% | 28%[15.4 µM] | 2 | -2 | 0.0
COc1ccccc1N1CCN(C(=O)[C@H](C)NS(=O)(=O)c2ccc3c(c2)OCCCO3)CC1 | x | -0.7% | -5% | 2% | -5 | x | x
Cc1ccc(C(=O)Nc2ccccc2C(=O)O)cc1S(=O)(=O)NC1CCCCC1 | 7% | 0.0% | -17% | 5% | -7 | -2 | -4.0
O=C(c1cccs1)N(CCN1CCCCC1)CC1CCCN(C2CCCC2)C1 (configuration not stated) | 2% | 0.6% | 28% | u | -4 | 0 | 3.8
COCc1cc(=O)n2[nH]c(SCc3ccccc3)nc2n1 | u | 3.1% | -7% | 8% | 0 | 18 | -4.2
Cc1ccc(SCCC(=O)OCC(=O)Nc2ccc(C(N)=O)cc2)cc1 | x | 0.5% | 17% | -46%[inhibitor] | 1 | -17 | x
COCCNC(=O)C(c1ccc(C)o1)N(Cc1ccccc1)C(=O)Cn1nnc2ccccc21 (configuration not stated) | 2% | 1.3% | -4% | 19% | -2 | -1 | 0.9
COc1ccc(CNc2nc(SCC(=O)NCc3ccco3)nc3ccccc23)cc1 | -4% | -1.7% | -17% | -7% | -7 | 6 | 5.7
Cc1cc(=O)c2cc(Cl)ccc2[nH]1 | 14%&2% | -1.8% | 0% | x | 1 | u | 3.2
O=C(NC(=S)Nc1ccc(N2CCOCC2)c(Cl)c1)c1cncc(Br)c1 | u | -19% | -18% | -22% | 1 | 15 | 7.8
CCC(C)(C)NC(=O)C(c1cccnc1)N(C(=O)c1csnn1)c1ccccc1 (configuration not stated) | -15% | -2.4% | 10% | 4% | -6 | 13 | 4.3
N#Cc1cn(CCOc2ccccc2F)c2ccccc12 | -5% | -1.6% | -3% | -7% | 15 | 8 | 0.7
Cc1ccc(NC(=O)c2cc(Cl)nc3ccccc23)cc1 | 10% | -0.8% | -3% | -24% | 5 | -13 | 1.8
O=C(CSCc1cnn(-c2ccccc2)c1-n1cccc1)NCCN1CCOCC1 | 26% | -4.5% | 7% | 1% | -7 | u | -2.7
COc1ccc(Br)cc1S(=O)(=O)N(CC(=O)N1CCN(C)CC1)c1ccccc1 | 8% | -2.6% | 2% | u | 6 | 4 | x
COc1ccc(N2CCN(C3CCCN(S(=O)(=O)c4ccc(C)cc4C)C3)CC2)cc1 (configuration not stated) | 3% | 1.1% | u | 1% | -66* | -23 | x
Cc1cc(OCC(=O)O/N=C(\N)c2ccccc2)cc(C)c1Cl | -13% | 0.5% | 4% | 1% | 18 | -7 | 2.2
Cc1cc(=O)cc(C)n1-c1ccc(F)cc1F | 26% | 0.1% | 12% | 26% | x | 5 | -4.2
COc1cc(/C=C2\CC/C(=C\c3cc(OC)c(OC)c(OC)c3)C2=O)cc(OC)c1OC | -2% | x | -12% | -24%[15.4 µM] | -10 | 1 | 1.5
Cc1ccc(/C=N/n2c(-c3ccco3)n[nH]c2=S)s1 | u | 0.5% | 3% | 2% | 2 | -5 | 0.7
Cc1ccc(CSCC2Nc3ccc(C(=O)N4CCN(c5ccc(F)cc5)CC4)cc3NC2=O)cc1 (configuration not stated) | 50µM* | -4.7% | 0% | 24% | -3 | -2 | u
Cc1cc(C)n(Cc2ccc(Cl)cc2Cl)c(=O)c1S(=O)(=O)c1ccccc1 | 2% | u | -2%[15.4 µM] | -5% | 4 | -11 | 2.1
Cc1cccc(COc2ncnc3nc[nH]c23)c1 | 8% | x | 5% | -6% | -7 | -3 | 6.5
CCN(CC)c1ccc(SS(=O)(=O)O)cc1 | 45µM* | 14µM*! | -2%&0% | -27%&-7% | -5&-28 | -1&6 | -1.9&0.6
Cc1ccc(NC(=O)CSCC(=O)NCCc2ccccc2)cc1 | 7% | 1.2% | -7% | 1%[15.4 µM] | -1 | -6 | x
O=C1ON=C(c2cccc([N+](=O)[O-])c2)/C1=C/c1ccc(O)cc1 | -61% | x | -46% | -2%[15.4 µM] | x | -10 | 2.2
CCOC(=O)c1cc2n(n1)C(C(F)(F)C(F)(F)F)CC(C)N2 (configuration not stated) | 25% | -5.4% | 1% | 34% | -6 | -3 | 1.1
O=C(CCS(=O)(=O)Cc1ccc(Cl)cc1)NCCCN1CCN(c2ccccc2F)CC1 | 0% | -1.3% | -6% | -23% | -4 | 13 | -0.1
O=C(COc1ccccc1Cl)N1CCc2ccccc21 | 13% | x | 2% | 11%[15.4 µM] | 5 | 7 | 0.2
COC(=O)c1ccc(NS(=O)(=O)c2ccc(S(=O)(=O)N3CCOCC3)cc2)cc1 | x | -0.3% | -19% | -61%[inhibitor] | 5 | x | x
C=CCOC(=O)C1=C(C)NC(SCC(N)=O)=C(C#N)C1c1cccs1 (configuration not stated) | -9% | -1.8% | -14% | 13% | 0 | 5 | -0.9
N=c1nc(N)nc2n1NC(c1ccc(F)cc1)=CS2 | -3% | -0.6% | 1% | 29% | u | -6 | 2.3
O=C(CSc1nc2ncc(Br)cc2[nH]1)Nc1ccccc1-c1ccccc1 | -10% | -1.0% | u | 25% | -7 | -11 | -3.1

Retrieved by compound from the entries so far (2):
SMILES | Sfp PPTase inh | ClpP mod | gsp antagonist | gsp agonist | CtBP-E1A blk | TRPV1 potentiator | Menin-MLL FL inh
O=C1ON=C(c2cccc([N+](=O)[O-])c2)/C1=C/c1ccc(O)cc1 | -61% | x | -46% | -2%[15.4 µM] | x | -10 | 2.2
Cc1ccc(NC(=O)CSCC(=O)NCCc2ccccc2)cc1 | 7% | 1.2% | -7% | 1%[15.4 µM] | -1 | -6 | x

The list continues:
SMILES | Sfp PPTase inh | ClpP mod | gsp antagonist | gsp agonist | CtBP-E1A blk | TRPV1 potentiator | Menin-MLL FL inh
COc1ccc(NC(=O)N2CCCC2C(=O)Nc2ccc(C)cc2C)cc1 (configuration not stated) | 9% | x | 7% | -42%[inhibitor] | 6 | 5 | 4.5
Cc1ccccc1NC(=O)c1cccc(C(F)(F)F)c1 | 12% | 1.2% | 9% | 4%[15.4 µM] | 9 | 2 | 1.7
CC1(C)C(=O)C2(C(=O)NCc3ccccc3)CCC1C2 (configuration not stated) | 9% | 1.0% | 1% | -70%[inhibitor] | 0 | -1 | -3.1
O=C(NCc1ccccc1)c1cc(-c2cccs2)on1 | 22% | -11% | -7% | -3% | 7 | -5 | 0.7
O=C(CNCCc1ccc(F)cc1)Nc1cc(F)ccc1F | 63µM* | 0.7% | 4% | u | 9 | u | 4.0
COC(=O)[C@H]1C[C@@]2(O)CN(S(=O)(=O)c3ccc(C)cc3)C[C@@]2(OC(=O)NC2CCCC2)C[C@H]1C(=O)OC | x | 0.9% | x | 13% | 3 | x | x
Cc1cc(/C=C(/C#N)C(=O)O)c(C)n1CCC(C)C | 0% | -0.6% | -23% | -36%[inhibitor] | 0 | 6 | 14
Oc1ccc(Cc2ccccc2Cl)c(O)c1 | x | -0.6% | -13% | 12%[15.4 µM] | 4 | x | x
COc1ccccc1N1CCN(C(=O)CSc2nc(C)c(Cc3ccccc3)c(=O)[nH]2)CC1 | -8% | -1.0% | -34% | -34% | -5 | 6 | 0.7
Cc1nc2ccccn2c1-c1nnco1 | 9% | u | 13% | 23% | 0 | 0 | -0.8
c1ccc(-c2cc(-c3nnc4sc(-c5ccccn5)nn34)[nH]n2)cc1 | 1% | -1.0% | -19% | 5% | -22 | 11 | -0.7
O=C(Nc1ccc(S(=O)(=O)N2C[C@@H]3C[C@@H](C2)c2cccc(=O)n2C3)cc1)c1ccc(F)cc1 | x | 17% | 1% | x | 1 | 5 | x

An excerpt of these results, tab-delimited.
SMILES	Sfp PPTase inh	ClpP mod	gsp antagonist	gsp agonist	CtBP-E1A blk	TRPV1 potentiator	Menin-MLL FL inh
O=C(CNCCc1ccc(F)cc1)Nc1cc(F)ccc1F	63µM*	0.7%	4%	u	9	u	4.0
COC(=O)[C@H]1C[C@@]2(O)CN(S(=O)(=O)c3ccc(C)cc3)C[C@@]2(OC(=O)NC2CCCC2)C[C@H]1C(=O)OC	x	0.9%	x	13%	3	x	x
Cc1cc(/C=C(/C#N)C(=O)O)c(C)n1CCC(C)C	0%	-0.6%	-23%	-36%[inhibitor]	0	6	14
